Screening data deposited in PubChem BioAssay by ICCB-Longwood Screening Facility, Harvard Medical School.
GIV Gai3 FP – GIV-Galpha-i interaction inhibition; AID 1224905; actives 0.42% (n = 210,000); percent of control (FP), % (test concentration not listed); Galpha-i3/FITC-GIV peptide fluorescence polarization, 90 min; stronger effect = lower value; scaled: aluminum fluoride 0%, vehicle 100%; P08753;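 active = replicate mean at 85% of control or lower, very high polarization wells dropped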;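 also: wells of about 15 µL received 100 nL stock; the first replicate is given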
Target sequence (P08753 whole entry, looked up): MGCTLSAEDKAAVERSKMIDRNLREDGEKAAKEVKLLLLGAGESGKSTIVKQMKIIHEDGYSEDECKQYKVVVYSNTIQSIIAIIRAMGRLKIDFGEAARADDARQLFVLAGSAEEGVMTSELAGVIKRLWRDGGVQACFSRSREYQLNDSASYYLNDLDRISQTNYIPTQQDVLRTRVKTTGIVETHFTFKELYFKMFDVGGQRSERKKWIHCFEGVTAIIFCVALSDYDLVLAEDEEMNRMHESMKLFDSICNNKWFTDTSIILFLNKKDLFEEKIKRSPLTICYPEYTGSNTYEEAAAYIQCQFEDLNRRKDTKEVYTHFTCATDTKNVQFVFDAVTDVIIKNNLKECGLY
The depositor's hits bear a star; & = joins results of further samples. A portion of the library (hit frequency here may not be typical).

Start of the listing, in advance (2 entries):
SMILES	GIV Gai3 FP
CCOC(=O)CC(=O)CSc1nc2cc(C(=O)N3CCC(C(N)=O)CC3)ccc2c(=O)n1-c1ccc(F)cc1	108
CCOC(=O)c1c(CN2CCCCC2)n(C2CCCCC2)c2cc(Br)c(O)cc12	102

All compounds of this part, from the first entry:
SMILES	GIV Gai3 FP
CCOC(=O)CC(=O)CSc1nc2cc(C(=O)N3CCC(C(N)=O)CC3)ccc2c(=O)n1-c1ccc(F)cc1	108
CCOC(=O)c1c(CN2CCCCC2)n(C2CCCCC2)c2cc(Br)c(O)cc12	102
CC(C)NC(=O)c1nsc(C(=O)N2CCCC2)c1N	97
O=[N+]([O-])c1cc(Cl)ccc1N1CCN(S(=O)(=O)c2cccc3nsnc23)CC1	113
COc1ccc(Br)cc1C1C(N2C(=O)c3ccc([N+](=O)[O-])cc3C2=O)C(=O)N1c1ccc(C)c(F)c1 (stereo not drawn)	117
Cc1c(Cl)c(C)c(C2=NON3N(C(=O)C45CC6CC(CC(C6)C4)C5)c4ccccc4N23)c(C)c1Cl	116
Cc1ccc(NS(=O)(=O)c2cc(-c3noc(C4CC4)n3)ccc2C)c(Cl)c1	99
CN1CCN(C(=O)/C(=C\c2cccnc2)NC(=O)c2ccco2)CC1	108
Cn1c(=O)[nH]c2c(C(=O)N3CCOCC3)snc2c1=O	99
O=C(O)C1=C2C(=O)Nc3cccc(c32)C2(C1)C(=O)Nc1ccccc12 (stereo not drawn)	108
CC1=C(C(=O)OCc2ccccc2)C(c2ccc(Cl)cc2)C(C#N)=C(SCC(N)=O)N1 (stereo not drawn)	99
Cc1ccc(CSc2ccc(-n3nc4c(c3C)CCC4)nn2)cc1	99
COc1ccc([N+](=O)[O-])cc1C(c1c(C)n(C)n(-c2ccccc2)c1=O)c1c(C)n(C)n(-c2ccccc2)c1=O	116
O=C(CCc1ccccc1)N1CCCN(C(=O)Nc2ccc(S(=O)(=O)N3CCCC3)s2)CC1	103
CCOC(=O)c1ccccc1NC(=O)c1sc2ncnc(N3CCCCC3)c2c1C	103
COc1cc(C2C3=C(CC(C)(C)CC3=O)OC3=C2C(=O)CC(C)(C)C3)ccc1Oc1nc2c(c(=O)n(C)c(=O)n2C)n1C	111
COc1ccc(OC)c(N2CC(O)(c3ccc(OC)c(OC)c3)[N+]3=C2SCCC3)c1 (stereo not drawn)	111
Cc1ccc(-c2noc(Cc3nc(-c4ccc(F)cc4)cs3)n2)cc1	112
O=C(c1csc(S(=O)(=O)N2CCc3ccccc32)c1)N1CCCC1	101
O=C(Nc1ccccc1F)C1CCN(Cc2cc3ccccc3n2Cc2cccc(F)c2)CC1	103
CCNc1cc(C)nc(Nc2ccc(NS(=O)(=O)c3ccc(OC)c(OC)c3)cc2)n1	102
CC(C)Cc1ccc(C#N)c(SCC(=O)Nc2ccc(C(=O)O)cc2)n1	99
C=CCn1c(SCc2nc(-c3ccc(OCC)cc3)no2)nc2cc3c(cc2c1=O)OCO3	112
CC(C)OC(=O)c1nnn(-c2nonc2N)c1CN1CCCC1	115
CCOc1ccccc1NC(=O)c1ccc(F)c(S(=O)(=O)N2CCN(c3ccc(OC)cc3)CC2)c1	101
OCCNc1nc(Nc2ccc3c(c2)OCO3)c2cnn(-c3ccccc3)c2n1	101
Cc1ccccc1-n1nc2c(c1NC(=O)c1ccc(C(=O)c3ccccc3)cc1)CS(=O)(=O)C2	103
Cn1c(SCC(=O)NCCc2ccccc2)nc2cc(-c3ccccc3)sc2c1=O	101
O=C(O)c1cccc(N2C(=O)/C(=C/c3ccc([N+](=O)[O-])cc3)C=C2c2ccccc2)c1	128
Cn1c(SCc2nc(-c3ccccc3)no2)nnc1-c1ccc2c(c1)OCCCO2	104
Cc1ccc2c(c1)Oc1cc(Cl)c(S(=O)(=O)N3CCC(C)CC3)cc1C(=O)N2	107
CCOC(=O)C1CCN(C(=O)c2c[nH]c3ccc(S(=O)(=O)N(CC)c4ccc(F)cc4)cc3c2=O)CC1	110
O=C(CN1CCOCC1)NCC1(c2ccccc2)CCCC1	121
Cc1ccc(Cc2nc(CCNS(=O)(=O)c3cnn(C(F)F)c3C)n[nH]2)cc1	101
S=c1[nH]nc(-c2ccco2)n1-c1ccccc1	100&115
CCCN(C)S(=O)(=O)c1cc(-c2nnc(C3CCCC3)o2)co1	101
CCCN1CCN(C(=O)C2CCCN(C(=O)CCc3c(C)[nH]c(C(=O)OCC)c3C)C2)CC1 (stereo not drawn)	110
O=C1CCN(C(=O)c2ccccc2)c2ccccc2N1	108
CCn1cnc2c(-c3ccccc3)csc2c1=O	105
COc1ccc(N2C(=O)C3C(c4ccccc4Cl)OC4(C(=O)c5ccccc5C4=O)C3C2=O)cc1 (stereo not drawn)	104
CC(=O)c1ccc(NC(=O)c2cnn3c(C(F)(F)F)cc(-c4ccc(Br)cc4)nc23)cc1	108
CCOC(=O)c1sc2nc(-c3ccc(C)cc3)cc(-c3ccco3)c2c1N	115
N#Cc1ccc(-c2cccs2)nc1SCC(=O)c1ccc(Cl)cc1Cl	105
COc1cccc(C2=N/C(=C\c3ccccc3OC)C(=O)N2c2ccc(C)cc2C)c1	73*
Cc1cccc(C)c1NC(=O)CSc1nnc(C(C)N2C(=O)COc3ccccc32)n1C (stereo not drawn)	101
CCCC(=O)N1CCCCC1CCN1CCOCC1 (stereo not drawn)	104
CC1(C)CC(=O)C2=C(C1)c1c(ccc3ccccc13)NC2c1ccc(-c2cccc(Cl)c2)o1 (stereo not drawn)	103
Cc1cc(N2CCOCC2)nc(N2CCN(S(=O)(=O)c3ccc4c(c3)Cc3ccccc3-4)CC2)n1	103
O=C1CC(c2ccccc2C(F)(F)F)c2ccc3ccccc3c2N1 (stereo not drawn)	101
CC(=O)N1c2c(C)cc(C)cc2-c2c(ssc2=S)C1(C)C	108
CCOC(=O)c1sc2nc(SCC(=O)NCc3ccco3)n(Cc3ccc(OC)cc3)c(=O)c2c1C	107
CCc1ccc(C2=Nc3cccnc3N(CC(=O)NCCc3ccc(Cl)cc3)C(=O)C2)cc1	104
COc1cc(/C=C2/N=C(c3ccco3)OC2=O)cc(Cl)c1OC(=O)c1ccccc1	110
COc1ccc(C2CC(C(F)(F)F)n3nc(C(=O)Nc4cccc(C(F)(F)F)c4)cc3N2)cc1OC (stereo not drawn)	108
c1ccc(-n2c(SCc3ccncc3)nnc2-c2ccco2)cc1	113
CC1(C)OC2OC(C(=O)NCc3ccccc3)C3OC(C)(C)OC3C2O1 (stereo not drawn)	103
CCN(CC)S(=O)(=O)c1ccc(NC(=O)N2CCCC(C(=O)Nc3ccc(F)cc3)C2)s1 (stereo not drawn)	105
Cc1ccc(/C(O)=C2\C(=O)C(=O)N(c3nncs3)C2c2cccc(Br)c2)cc1 (stereo not drawn)	116
Cc1nc(N2CCOCC2)nc(NCc2ccccc2)c1[N+](=O)[O-]	102
CC1CCc2c(sc3[nH]c(=S)[nH]c(=O)c23)C1 (stereo not drawn)	106
Next part.
SMILES	GIV Gai3 FP
Cc1c(C(=O)N2CCN(c3ccccc3F)CC2)sc2ncn(CC(=O)N3CC(C)CC(C)C3)c(=O)c12 (stereo not drawn)	101
O=c1[nH]c(SC/C=C/c2ccccc2)nc2c1cnn2-c1ccc(Cl)cc1	100
Cc1onc(-c2ccccc2Cl)c1C(=O)Nc1nnc2n1CCS2	98
COc1ccccc1NC(=O)N1CCCC(c2nnc(C(=O)Nc3ccc(F)cc3)s2)C1 (stereo not drawn)	103
Fc1cccc2[nH]c3nc(=S)[nH]nc3c12	117
C=CCn1c(=O)c(=O)n(Cc2ccc(C(=O)NCCCN3CCCC3=O)cc2)c2ccccc21	108
Cc1ccc(S(=O)(=O)c2cnc(N3CCN(c4ccccc4Cl)CC3)nc2N)cc1C	105
CCCC(=O)N1CCN=C1N1CCCCC1	105
CCSc1nnc(NC(=O)COC(=O)CC(NC(=O)c2ccccc2)c2cccc(OC)c2)s1 (stereo not drawn)	109
CCCCCn1c(SCC(=O)Nc2ccccc2Cl)nc2cc(C(=O)NCc3ccco3)ccc2c1=O	116
Cc1ccc(-c2nn3c(=O)cc(CN4CCN(C(=O)c5ccc6c(c5)OCO6)CC4)nc3s2)cc1	106
CCN1C=C(c2ccc3ccccc3n2)C(C[N+](=O)[O-])c2ccccc21 (stereo not drawn)	106
O=C(CNCc1cccnc1)N1c2ccccc2Sc2ccc(C(F)(F)F)cc21	107
Cc1noc(Cn2cnc3c4cc(F)ccc4n(Cc4ccc(F)cc4)c3c2=O)n1	106
CCOC(=O)c1c(S(=O)(=O)NCC(=O)N2CCc3ccccc32)c(C)n(CC)c1C	105
CCOC(=O)c1c(-c2ccccc2)oc2ccc(NS(=O)(=O)c3c(C)cc(C)cc3C)cc12	110
O=C(CCc1nc(CSc2nc3ccccc3s2)no1)Nc1cccc(Br)c1	105
COc1cccc(C2=NN3C(C2)c2cccc(OC)c2OC3c2ccc(SC)cc2)c1 (stereo not drawn)	103
CCS(=O)(=O)c1cccc(C(=O)Nc2sc3c(c2C(N)=O)CCC3)c1	105
COc1ccc(C2=NN3C(C2)c2cc(Cl)ccc2OC3c2ccc(OC)c(OC)c2)cc1 (stereo not drawn)	104
Cc1nn(-c2nc3ccccc3o2)c2c1C(c1ccc(Cl)cc1)CC(=O)N2 (stereo not drawn)	107
O=C(Nc1ccc(Cl)cc1)N1CCC(n2cnc3ccccc3c2=O)CC1	148
c1c[nH]c(CN2CCCC(Nc3ncnc4c3CCC4)C2)c1 (stereo not drawn)	109
Cc1ccc(-c2ccc(-n3nc(C)c(S(=O)(=O)NCCC(C)C)c3C)nn2)cc1	105
COc1ccc(/C(O)=C2\C(=O)C(=O)N(CCCO)C2c2ccc(OC)cc2OC)cc1 (stereo not drawn)	114
O=C(c1ccc2c(=O)n(CCC3=CCCCC3)c(=S)[nH]c2c1)N1CCN(c2ccccn2)CC1	108
Cn1cc2c(N3CCCC3)nc(C(=O)NC3CC3)nc2n1	99
COc1ccc([C@@H]2[C@@H](C(=O)C34CC5CC(CC(C5)C3)C4)N3c4ccccc4C=C[C@@H]3C2(C#N)C#N)cc1OC	141
CCN(c1cccc(C)c1)S(=O)(=O)c1ccc2[nH]cc(C(=O)NCc3ccccc3OC)c(=O)c2c1	100
CN(CCCNC(=O)c1cc(S(=O)(=O)N2CCSCC2)ccc1Cl)c1ccccc1	99

Part of the list above in order of count of non-hydrogen atoms, ascending.
SMILES	GIV Gai3 FP
Cn1cc2c(N3CCCC3)nc(C(=O)NC3CC3)nc2n1	99
c1c[nH]c(CN2CCCC(Nc3ncnc4c3CCC4)C2)c1 (stereo not drawn)	109
CCS(=O)(=O)c1cccc(C(=O)Nc2sc3c(c2C(N)=O)CCC3)c1	105
CCN1C=C(c2ccc3ccccc3n2)C(C[N+](=O)[O-])c2ccccc21 (stereo not drawn)	106
O=C(Nc1ccc(Cl)cc1)N1CCC(n2cnc3ccccc3c2=O)CC1	148
O=C(CCc1nc(CSc2nc3ccccc3s2)no1)Nc1cccc(Br)c1	105
Cc1ccc(-c2ccc(-n3nc(C)c(S(=O)(=O)NCCC(C)C)c3C)nn2)cc1	105
Cc1noc(Cn2cnc3c4cc(F)ccc4n(Cc4ccc(F)cc4)c3c2=O)n1	106
COc1cccc(C2=NN3C(C2)c2cccc(OC)c2OC3c2ccc(SC)cc2)c1 (stereo not drawn)	103
COc1ccc(C2=NN3C(C2)c2cc(Cl)ccc2OC3c2ccc(OC)c(OC)c2)cc1 (stereo not drawn)	104
CCOC(=O)c1c(-c2ccccc2)oc2ccc(NS(=O)(=O)c3c(C)cc(C)cc3C)cc12	110
O=C(c1ccc2c(=O)n(CCC3=CCCCC3)c(=S)[nH]c2c1)N1CCN(c2ccccn2)CC1	108
Cc1ccc(-c2nn3c(=O)cc(CN4CCN(C(=O)c5ccc6c(c5)OCO6)CC4)nc3s2)cc1	106
CCN(c1cccc(C)c1)S(=O)(=O)c1ccc2[nH]cc(C(=O)NCc3ccccc3OC)c(=O)c2c1	100
CCCCCn1c(SCC(=O)Nc2ccccc2Cl)nc2cc(C(=O)NCc3ccco3)ccc2c1=O	116
COc1ccc([C@@H]2[C@@H](C(=O)C34CC5CC(CC(C5)C3)C4)N3c4ccccc4C=C[C@@H]3C2(C#N)C#N)cc1OC	141

(list continues)
SMILES	GIV Gai3 FP
CC(C)(C)c1cc(-c2nc(-c3ccc4c(c3)sc3ccccc34)c(-c3ccccc3)[nH]2)cc(C(C)(C)C)c1O	104
CN(C)S(=O)(=O)c1ccc2c(c1)cc(C(=O)NCc1ccccn1)n2Cc1ccncc1	106
Cc1ccc2c(c1)OC(C)CN2S(C)(=O)=O (stereo not drawn)	102
CCOC(=O)COc1ccc(C(C2=C(O)CC(C)(C)CC2=O)C2C(=O)CC(C)(C)CC2=O)cc1OC (stereo not drawn)	109
C=CCN(C)C(=O)c1cc2sccc2n1C	100
CCNc1cc(C)nc(N2CCN(S(=O)(=O)c3ccc(OCC)cc3)CC2)n1	102
Cc1sc(-c2cc(C(F)(F)F)on2)cc1S(=O)(=O)NCCC(C)C	97
CC(C)NC(=O)C1CCCN(C(=O)c2ccc(NC(=O)c3ccccc3)cc2)C1 (stereo not drawn)	106
Cc1noc(C)c1C1CCCN1C(=O)c1cc(C(F)(F)F)n(C)n1 (stereo not drawn)	98
CN(C)c1nc(Oc2ccc(OCC(N)=O)nn2)nc(N(C)C)n1	101
Cc1ccc(Sc2nccnc2N2CCCC(C(=O)NCc3cccnc3)C2)cc1 (stereo not drawn)	103
Cc1nc(N2CCN(C)CC2)c2c(C)c(C(=O)Nc3cc(C)on3)sc2n1	100
Cc1nc(N2CCN(C)CC2)c2c(C)c(C(=O)NCCN(C)C)sc2n1	107
Cc1cccc(-c2cnc(Nc3cccc(C(=O)NCCC(C)C)c3)nc2)c1	104
CCOCCn1cnc2sc(C(=O)NC(C)C)c(C)c2c1=O	110
C=C(C)CSc1nnc2n(-c3ccc(C)cc3)c(=O)c3c4c(sc3n12)CCCCC4	105
Cc1cc2c(cc1C)CSC(c1c(O)ccc3cc(Br)ccc13)SC2	104
O=C(NC1CC(=O)N(c2ccc3c(c2)OCCO3)C1)C1CCCC1 (stereo not drawn)	99
CCOC(=O)c1c(S(=O)(=O)N2CCC(C(=O)Nc3ccc(OC)cc3OC)CC2)c(C)n(C)c1C	107
O=C(CCn1cnc2c(-c3ccccc3)noc2c1=O)NC1CC1	95
Cc1ccc(C2CCCCCN2C(=O)Nc2ccc(F)cc2F)s1 (stereo not drawn)	106
CN1C(=O)CSc2cnn(CC(=O)NC3CCCC3)c(=O)c21	98
